TRPML1 ag = agonists of human TRPML1 channel | TRPML1-expressing cells, Ca2+ dye fluorescence, FDSS; host cell line not named in the record; reference of the full effect not given here | activation, % (test concentration not listed) | AID 624414 | Q9GZU1 | 410,000 compounds, 0.12% hits; in the data active = activation above about 50%; inconclusive = about 30% to 50%; inactive = below about 30%; note: 0% is about no effect; the text of the record puts the active cut at 80%
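Kinetic FDSS Ca2+ read in Tet-induced TRPML1-DL cells (ABD Ca8 dye plus quencher, 45-90 min RT loading): baseline, then compound, then 110 s agonist window; EC80 agonist 54-4 at 4uM final added afterwards for a 110 s antagonist window.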
Six1-Eya2 inh = Six1/Eya2 interaction inhibition; Q15475+O00167; AlphaScreen GST-Six1/His-Eya2 binding, biochemical; stronger effect = lower value; control for the full effect not named in the record; activity change, % (test concentration not listed); 360,000 compounds, 0.56% hits; AID 651725; in the data active = activity change below about -65%; inconclusive = about -30% to -65%; inactive = above about -30%; note: % is set by controls: 0 for no effect and ±100 for the full control effect
Target sequence (O00167 whole entry, looked up): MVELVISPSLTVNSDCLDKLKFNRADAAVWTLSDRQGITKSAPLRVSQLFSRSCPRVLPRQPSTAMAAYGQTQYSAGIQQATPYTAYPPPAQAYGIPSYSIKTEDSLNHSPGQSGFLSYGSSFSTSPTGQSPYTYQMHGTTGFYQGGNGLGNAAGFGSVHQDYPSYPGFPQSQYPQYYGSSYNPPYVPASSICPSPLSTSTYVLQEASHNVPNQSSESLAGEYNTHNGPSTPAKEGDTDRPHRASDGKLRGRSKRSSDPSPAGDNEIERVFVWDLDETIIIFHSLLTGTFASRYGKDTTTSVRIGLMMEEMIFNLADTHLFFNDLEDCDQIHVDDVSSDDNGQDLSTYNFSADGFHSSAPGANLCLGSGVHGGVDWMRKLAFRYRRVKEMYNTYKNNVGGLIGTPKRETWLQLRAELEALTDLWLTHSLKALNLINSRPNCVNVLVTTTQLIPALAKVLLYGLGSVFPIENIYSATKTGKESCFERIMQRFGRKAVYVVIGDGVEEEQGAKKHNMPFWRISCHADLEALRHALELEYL
Target sequence (Q15475 whole entry, looked up): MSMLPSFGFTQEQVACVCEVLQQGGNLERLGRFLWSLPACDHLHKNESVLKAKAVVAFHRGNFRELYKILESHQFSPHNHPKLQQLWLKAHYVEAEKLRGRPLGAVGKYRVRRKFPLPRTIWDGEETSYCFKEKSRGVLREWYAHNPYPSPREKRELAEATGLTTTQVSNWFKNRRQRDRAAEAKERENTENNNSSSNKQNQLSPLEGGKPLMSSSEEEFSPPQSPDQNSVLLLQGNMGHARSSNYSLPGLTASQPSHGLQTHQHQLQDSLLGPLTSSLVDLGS
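AlphaScreen with GST-Six1 and His-Eya2 (5X mix: 250 nM and 500 nM), glutathione donor and nickel acceptor beads; buffer 50 mM Tris pH 8.0, 300 mM NaCl, 1 mM TCEP; 1 h at 37 C in the dark.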
TRPV1 potentiator = potentiators of human vanilloid receptor 1 (TRPV1); TRPV1-expressing cells, Fluo-8 calcium influx, capsaicin EC20 potentiation; host cell line not named in the record; control for the full effect not named in the record; potentiation, % at 8.33 µM; 320,000 compounds, 0.02% hits; active means potentiation above 80%; inconclusive means 30% to 80%; inactive means below 30%; note: 0% is about no effect
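Fluo-8 calcium influx in TRPV1-expressing cells, kinetic read (ex 480/em 520 nm). Compound added and read 3 min for agonist activity, followed by capsaicin at EC20 final and 2 min further read for enhancement.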
TRPML1 inh = inhibitors of human TRPML1 channel | Q9GZU1 | activity change, negative = inhibition, % (concentration not given with the values) | AID 624415 | 390,000 compounds, 0.02% hits | TRPML1-inducible cells, Ca2+ dye fluorescence, FDSS; stronger effect = lower value; inhibition of EC80 agonist-evoked calcium signal; in the data active means activity change below about -50%; inconclusive means about -30% to -50%; inactive means above about -30%;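 note: stimulus is agonist 54-4 at its EC80 concentration; % is set by controls: 0 for no effect and ±100 for the full control effect; the text of the record puts the active cut at -80%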
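TRPML1-DL cells, Tet-induced overnight (~16 h, 37 °C) at 1,500 cells/well, were loaded with Ca8 no-wash dye plus quencher for 45-90 min at room temperature. Compounds were pinned during FDSS kinetic reading; agonist 54-4 at EC80 (4 uM final) then added.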
D2 potentiator = potentiates the human D2 dopamine receptor allosterically; 360,000 compounds, 0.23% hits; DiscoveRx D2 beta-arrestin cells, luminescence, 90 min; 100% = 57 uM dopamine signal; potentiation, % (test concentration not listed); active = potentiation of 50% or more; inconclusive = 30% to 50%; inactive = 30% or less;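 note: compound concentration not given in the record; tested on top of an EC20 dose of dopamine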
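PathHunter beta-arrestin assay in DiscoveRx D2 cells. Compounds were added with an EC20 of dopamine (50 nM final) for 90 min at 37 deg C. Luminescence was read 1 h after detection reagent, with 57 uM dopamine as the EC100 control.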
CtBP-E1A blk = CtBP/E1A binding inhibition; AID 651724; 340,000 compounds, 0.49% hits; AlphaScreen GST-E1A/His-CtBP binding, 1536-well; stronger effect = lower value; control for the full effect not named in the record; activity change, % (test concentration not listed); in the data active means activity change below about -65%; inconclusive means about -30% to -65%; inactive means above about -30%; note: % is set by controls: 0 for no effect and ±100 for the full control effect
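In 5 uL wells, 23 nL compound meets equimolar GST-E1A and His-CtBP (5X stock 125 nM each) for 2 h, 37 °C. Beads (5X, 50 ug/mL) then 1 h, 37 °C, dark.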
An asterisk follows results filed as active; ? = inconclusive; nt = no result given. Not a hit list, and some 0.95% of all compounds hit somewhere here.

SMILES	TRPML1 ag	Six1-Eya2 inh	TRPV1 potentiator	TRPML1 inh	D2 potentiator	CtBP-E1A blk
Nc1nc(NCc2ccco2)nc(Nc2ccccc2)c1[N+](=O)[O-]	-0.3	2	15	27	-4	-1
COc1ccc(CCNC(=O)c2cc3c(=O)n4ccccc4nc3n(C3CCCCC3)c2=N)cc1OC	3.3	-9	-15	-16	-6	nt
O=C(COC(=O)c1cc(S(=O)(=O)N2CCOCC2)c(Cl)cc1Cl)c1ccc[nH]1	-0.2	-1	14	-6	0	-7
COC(=O)c1c(C)[nH]c(C(=O)COC(=O)Cn2cc(C(F)(F)F)ccc2=O)c1C	0.6	38	19	-1	-10	-3
CNc1ccc(Cl)cc1S(=O)(=O)c1ccccc1[N+](=O)[O-]	-0.7	-23	nt	nt	15	-22
CCn1c(=O)c([N+](=O)[O-])c(NCc2ccc3c(c2)OCO3)c2ccccc21	-0.3	-25	7	17	-26	nt
COc1cc(C(=O)N2CCN(c3ccccn3)CC2)cc(OC)c1OC	0.3	-2	20	7	0	-2
CC(C(=O)Nc1ccccc1)N(C)Cc1cccs1 (stereo not given)	-0.4	4	-16	1	-16	9
CC(=O)Nc1ccc(S(=O)(=O)N(C)CC(=O)OCC(=O)N(C)c2ccccc2)cc1	0.3	12	-9	2	2	0
CCOC(=O)CCP(=O)(O)C(O)c1ccc(OC)cc1 (stereo not given)	-0.2	1	-3	9	6	11
Cc1cc(-n2c(C)c3c(C)nnc(C)c3c2C)ccc1N	0.5	-9	5	20	-5	0
Cc1ccc(C)c(-n2[nH]c3c4c(ccc3c2=O)C(=O)c2ccccc2C4=O)c1	0.3	-3	0	-12	12	-7
CCOC(=O)/C(C#N)=C/Nc1cc(C(=O)OCC)cc2c(OC)c(OC)ccc12	2.1	14	0	-13	-3	8
COCCSc1nnc(NC(=O)COc2ccc3c(c2)OCO3)s1	0.3	13	7	4	-11	-8
O=C(NC1CCCCC1)N1CCCc2ccccc21	-0.9	3	-5	-6	-22	9
CCOC(=O)N1CCC(NC(=O)c2ccc3snnc3c2)CC1	-0.7	-2	11	-1	-3	-10
COC(=O)[C@]1(CC(C)C)N[C@H](c2ccc(-c3cccc(Cl)c3)cc2)[C@@H]2C(=O)N(C)C(=O)[C@@H]21	-0.2	-15	12	-3	-12	-10
COc1ccc(CCNC(=O)C23CN(Cc4ccccc4)CC2C(c2ccc([N+](=O)[O-])cc2)=NO3)cc1 (stereo not given)	1.1	-25	0	-4	-4	-21
CC(=O)Nc1ccc(S(=O)(=O)NC2CC(=O)N(c3cccc(F)c3)C2)cc1 (stereo not given)	0.0	1	6	1	-30	7
O=C(Cn1ccc(NC(=O)OCc2ccccc2)nc1=O)NCc1ccc2c(c1)OCO2	0.6	-23	-6	28	-6	-7

A few values from the results shown:
`COC(=O)c1c(C)[nH]c(C(=O)COC(=O)Cn2cc(C(F)(F)F)ccc2=O)c1C` @ TRPV1 potentiator = 19
`Cc1ccc(C)c(-n2[nH]c3c4c(ccc3c2=O)C(=O)c2ccccc2C4=O)c1` @ TRPML1 inh = -12

Additional entries follow:
SMILES	TRPML1 ag	Six1-Eya2 inh	TRPV1 potentiator	TRPML1 inh	D2 potentiator	CtBP-E1A blk
CC(=O)c1ccc(OCC(=O)N(C)CC(=O)Nc2ccc(N3CCOCC3)cc2)cc1	-0.1	6	-5	36	-2	-9
CC1(C(=O)NCc2ccccc2)Cc2c(-c3cccc(C(F)(F)F)c3)ccnc2O1 (stereo not given)	-0.2	0	nt	nt	-9	0
O=C1CSC(c2ccccn2)N1c1ccc(Cl)c(Cl)c1 (stereo not given)	0.6	-1	nt	10	-9	6
COc1ccc(/C=C2\C(=O)c3ccccc3OC2c2ccccc2)cc1 (stereo not given)	5.6	-9	5	-5	-5	0
c1ccc2c(c1)CCN(c1ncnc3c1[nH]c1ccccc13)C2	-0.6	-10	-1	-12	-20	-12
COc1cccc(N2CCN(C(=O)CCNS(=O)(=O)c3ccc(F)c(F)c3)CC2)c1	-1.0	2	nt	-14	-22	nt
COc1ccccc1OCC(=O)Nc1ccc(C(N)=O)cc1	0.7	5	0	-13	-6	-19
NNC(=O)c1cnn(-c2ccccc2)c1C(F)(F)F	-1.1	5	-10	10	-11	2
O=C(Nc1ccc(-c2cn3c(n2)SCC3)cc1)c1ccc2c(c1)OCO2	-0.3	-24	14	-19	-6	-19
Cc1cc(NS(=O)(=O)c2ccc(NC(=O)Cc3cccs3)cc2)no1	3.8	1	10	33	-6	0
O=C(NCCc1ccccc1)/C(=C\c1ccc([N+](=O)[O-])cc1)NC(=O)c1ccc(Br)cc1	0.0	14	1	4	3	4
Cc1cccc(-n2c(O)c(C=NC3CCS(=O)(=O)C3)c3ccccc3c2=O)c1 (stereo not given)	-0.6	0	7	60	-6	-7
COc1ccc(CCNC(=O)C2CC(O)CN2S(=O)(=O)c2ccc(Cl)cc2)cc1OC (stereo not given)	-0.1	5	nt	8	-3	-1
COc1ccc(S(=O)(=O)N2CCSC2c2ccc(N)cc2)cc1 (stereo not given)	4.4	-3	-1	-1	-2	20
O=C1/C(=C/c2ccc(F)cc2)Oc2cc(OC(=O)N3CCOCC3)ccc21	0.0	-10	-20	9	-9	-14
CCCCNS(=O)(=O)c1ccc2nc(SCC(=O)Nc3ccccc3)[nH]c2c1	1.8	0	8	15	1	6
Cc1nc2ccccn2c1C(=O)NCC(C)C	-0.6	3	2	-3	0	nt
O=C(Nc1cccc(C(=O)N2CCCCC2)c1)C1CCC1	-0.7	1	nt	14	-4	0
COc1ccc(CN(C)CC2CCCN(CCc3ccc(F)cc3)C2)cc1OC (stereo not given)	nt	-11	-3	nt	-75	nt
CCOC(=O)c1cc(-c2ccccc2)sc1NC(=O)C(C)OC(=O)c1ccncc1 (stereo not given)	-0.4	-1	16	7	-21	-3
COc1cc(C2NC(=O)NC(O)(C(F)(F)F)C2C(C)=O)cc(OC)c1OC (stereo not given)	0.1	25	15	15	-10	0
CCOC(=O)N1CCN(C(=O)c2ccc(CS(=O)(=O)c3ccccc3OC)o2)CC1	-0.9	0	?	-7	-10	-4
Cc1ccc(S(=O)(=O)N2CCN(C(=O)CN3CCCCC3)C2C(C)C)cc1 (stereo not given)	1.3	-1	4	6	2	2
NC(CO)c1csc(Nc2ccc(C(F)(F)F)cn2)n1 (stereo not given)	0.7	?	nt	-9	-5	-74*
O=C(/C=C/c1ccc([N+](=O)[O-])cc1)NCC1CCCO1 (stereo not given)	-0.9	1	6	-2	-4	-3
Cc1ccc(F)cc1NC(=O)C1CC(=O)N(CCc2ccccc2)C1 (stereo not given)	0.3	7	-12	-9	-5	-5
CC(C)c1ccc(Nc2nc(NCc3ccco3)nc(N3CCOCC3)n2)cc1	0.2	-14	-5	-5	-9	-16
O=C(CN(Cc1ccccc1F)C(=O)c1ccco1)NCc1ccc(F)cc1	0.7	0	-10	7	1	3
O=C(c1cccc([N+](=O)[O-])c1)N1CCN(C/C=C/c2ccccc2)CC1	-0.4	-5	nt	?	-18	-15
COc1cc(/C=N/N=C(/N)c2nonc2N)cc(Br)c1OCc1cccc(C)c1	0.3	-10	-4	7	-10	-13
CN1N=C(C(=O)N2CCCC(N3CCN(c4ccc(F)cc4)CC3)C2)CCC1=O (stereo not given)	1.0	2	0	0	-11	1
C=CCN(CC=C)C(=O)c1ccc(OC2CCN(S(=O)(=O)N(C)C)CC2)cc1	-0.1	-2	-1	-8	-5	5
CC1Cc2ccccc2N1CC(=O)Nc1cccc(S(N)(=O)=O)c1 (stereo not given)	1.1	7	19	-17	1	-2
O=C(O)CCC1OC(=O)C(O)=C1c1ccccc1 (stereo not given)	nt	2	2	nt	13	9
CCCc1cc(N2CCCC2)n2nc(C)c(-c3ccccc3)c2n1	-0.1	23	4	5	-17	26
CCOC(=O)c1c(NC(=O)COC(=O)C2CC2C)sc(C)c1C (stereo not given)	2.4	18	-2	28	-6	16
C/C(N)=C(/C#N)C(=O)CSc1nnc(NC(C)C)s1	-0.4	-6	4	11	1	45
COc1cc(C(=O)NNC(=O)C2CC=CCC2C(=O)O)cc(OC)c1OC (stereo not given)	-0.6	3	6	-1	12	3
COc1ccc(OC)c(NC(=O)CSc2nnc(CCCO)n2-c2ccccc2)c1	0.3	1	-19	-6	-19	0
O=C(NNC1=C(C(=O)C(F)(F)F)CCC1)c1ccc(Cl)cc1	-0.4	-4	-15	-9	-26	18
O=C(c1cccn(Cc2cccc(Cl)c2)c1=O)N1CCOCC1	-0.3	2	-4	42	2	4
CSCC(=O)Nc1nc(-c2ccc3c(c2)OCCO3)cs1	1.0	-6	-18	-15	-4	0
CCO[C@@H]1OC(C(=O)NC2CC2)=C[C@H](C(C)(C)C)[C@H]1CCCO	-0.1	3	?	16	-5	9
CCOc1ncccc1C(=O)OC(C)C(=O)Nc1ccc(Cl)cn1 (stereo not given)	2.7	7	-2	-9	2	11
Nc1ccc2c(c1)N1CCN=C1S2	1.0	1	-17	-11	-5	-9
CC(C)CCNC(=O)COc1ccc2c3c(c(=O)oc2c1)CCC3	-0.4	2	19	11	-1	4
Cc1noc(C)c1C(=O)N1CCC1(C)C(=O)NS(=O)(=O)c1cccc(F)c1 (stereo not given)	-0.3	9	nt	nt	-5	2

11 entries from above, with two lines to a compound:
Order of results: TRPML1 ag | Six1-Eya2 inh | TRPV1 potentiator | TRPML1 inh | D2 potentiator | CtBP-E1A blk
Nc1nc(NCc2ccco2)nc(Nc2ccccc2)c1[N+](=O)[O-]
 : -0.3 | 2 | 15 | 27 | -4 | -1
COc1ccc(CCNC(=O)c2cc3c(=O)n4ccccc4nc3n(C3CCCCC3)c2=N)cc1OC
 : 3.3 | -9 | -15 | -16 | -6 | nt
O=C(COC(=O)c1cc(S(=O)(=O)N2CCOCC2)c(Cl)cc1Cl)c1ccc[nH]1
 : -0.2 | -1 | 14 | -6 | 0 | -7
COC(=O)c1c(C)[nH]c(C(=O)COC(=O)Cn2cc(C(F)(F)F)ccc2=O)c1C
 : 0.6 | 38 | 19 | -1 | -10 | -3
CNc1ccc(Cl)cc1S(=O)(=O)c1ccccc1[N+](=O)[O-]
 : -0.7 | -23 | nt | nt | 15 | -22
CCn1c(=O)c([N+](=O)[O-])c(NCc2ccc3c(c2)OCO3)c2ccccc21
 : -0.3 | -25 | 7 | 17 | -26 | nt
COc1cc(C(=O)N2CCN(c3ccccn3)CC2)cc(OC)c1OC
 : 0.3 | -2 | 20 | 7 | 0 | -2
CC(C(=O)Nc1ccccc1)N(C)Cc1cccs1 (stereo not given)
 : -0.4 | 4 | -16 | 1 | -16 | 9
CC(=O)Nc1ccc(S(=O)(=O)N(C)CC(=O)OCC(=O)N(C)c2ccccc2)cc1
 : 0.3 | 12 | -9 | 2 | 2 | 0
CCOC(=O)CCP(=O)(O)C(O)c1ccc(OC)cc1 (stereo not given)
 : -0.2 | 1 | -3 | 9 | 6 | 11
Cc1cc(-n2c(C)c3c(C)nnc(C)c3c2C)ccc1N
 : 0.5 | -9 | 5 | 20 | -5 | 0

Screening results (PubChem BioAssay)
